Screening results from PubChem.
Autofluor counter – compound fluorescence in toxin protease inhibitor counterscreen; compound autofluorescence counterscreen, microsphere flow cytometry; active compounds read high; fluorescence intensity (no concentration beside the values); 360,000 compounds, 3.1% hits; AID 624483;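 active = at least 3 SD above the mean of all compounds, about 16000 in these data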;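 note: 100 nL of 1 mM stock went into each well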
* marks the source's active call; other numbers are inactive results. The list is partial. The share of hits here may be higher or lower than overall.

SMILES	Autofluor counter
CN1CCN(C(=O)c2cccc(-c3ccc4nccn4c3)c2)CC1	3810
CC1(C(=O)NS(=O)(=O)c2ccc3c(c2)CCO3)CCN1C(=O)C1(c2ccc(Cl)cc2)CC1 (stereo unspecified)	3983
COc1ccccc1CNC(=O)c1cc(-c2cc(Cl)ccc2C)n[nH]1	3001
COc1ccccc1C1SCCN1S(=O)(=O)c1ccccc1 (stereo unspecified)	3952
CCOC(=O)C(c1nc2ccccc2[nH]1)n1c(-c2ccccn2)nc2ccccc21 (stereo unspecified)	6153
CC1=C(C(=O)N2CCCCCC2)CC(CC(=O)NCC2CCCCC2)C(=O)N1CCCN1CCCC1=O (stereo unspecified)	5527
CS(=O)(=O)c1cc(N2CCOCC2)ccc1CNC[C@H]1O[C@@H](n2cnc3c(=O)[nH]c(N)nc32)[C@H](O)[C@@H]1O	6067
Cc1cc(CNC[C@H]2O[C@@H](n3cnc4c(N)ncnc43)[C@H](O)[C@@H]2O)no1	3492
COc1cccc(NC(=O)C2(C)CCN2Cc2ccc(-c3ccccc3)o2)c1 (stereo unspecified)	3604
O=C(OCc1cn([C@@H]2C[C@H](c3ccccc3)N(C(=O)c3cccs3)C[C@H]2O)nn1)c1ccccc1	3725
CCOC(=O)[C@]12CCC=C1N(Cc1ccc3c(c1)OCO3)C(=O)[C@H](CC(=O)N1CCCCC1)C2	6784
O=C(O)CCCNCc1ccccc1F	11814
C/C=C/c1cccc(-c2nc(C(=O)NC3CCC3)cc3c2[C@@H](CCO)N(S(=O)C(C)(C)C)C3)c1 (stereo partly specified)	6909
CC(=O)C1=CCC(c2ccc(C)cc2)N(S(=O)(=O)c2ccc(Cl)cc2)C1 (stereo unspecified)	4502
O=C1c2ccccc2C(c2nnnn2-c2ccc3c(c2)OCCO3)N1CCOc1ccccc1 (stereo unspecified)	4278
CCN(CC)C(=O)C1=C(C)N(Cc2ccccc2)C(=O)C(CC(=O)NCc2cccs2)C1 (stereo unspecified)	3680
COc1ccc(NC(=O)Nc2ccc3c(c2)C(=O)N([C@H](C)CO)C[C@H](C)[C@H](CN(C)Cc2ccc(C(=O)O)cc2)OCCCC[C@@H](C)O3)cc1	3732
CCCNC(=O)C1(C)CCCN(Cc2cccc(C(F)(F)F)c2)C1 (stereo unspecified)	3055
CC[C@@H]1CCC[C@@H](O)[C@@H](C)C(=O)O[C@H](C)[C@@H](C)C/C=C(C)/C(OC)=C\C(=O)N(C)C([C@@H](C)CC)C(=O)N(C)[C@@H](C(C)C)C(=O)N(C)[C@@H](COC)C(=O)N2CCC[C@H]2C(=O)N(C)[C@@H](C(C)C)C(=O)N2CCC[C@H]2C(=O)O1 (stereo partly specified)	5610
C[C@H](CO)N1C[C@H](C)[C@H](CN(C)C(=O)c2ccccc2)OCc2cnnn2CCCC1=O	3584

In another format: 14 of the compounds above
smiles | Autofluor counter
CN1CCN(C(=O)c2cccc(-c3ccc4nccn4c3)c2)CC1 | 3810
CC1(C(=O)NS(=O)(=O)c2ccc3c(c2)CCO3)CCN1C(=O)C1(c2ccc(Cl)cc2)CC1 (stereo unspecified) | 3983
COc1ccccc1CNC(=O)c1cc(-c2cc(Cl)ccc2C)n[nH]1 | 3001
COc1ccccc1C1SCCN1S(=O)(=O)c1ccccc1 (stereo unspecified) | 3952
CCOC(=O)C(c1nc2ccccc2[nH]1)n1c(-c2ccccn2)nc2ccccc21 (stereo unspecified) | 6153
CC1=C(C(=O)N2CCCCCC2)CC(CC(=O)NCC2CCCCC2)C(=O)N1CCCN1CCCC1=O (stereo unspecified) | 5527
CS(=O)(=O)c1cc(N2CCOCC2)ccc1CNC[C@H]1O[C@@H](n2cnc3c(=O)[nH]c(N)nc32)[C@H](O)[C@@H]1O | 6067
Cc1cc(CNC[C@H]2O[C@@H](n3cnc4c(N)ncnc43)[C@H](O)[C@@H]2O)no1 | 3492
COc1cccc(NC(=O)C2(C)CCN2Cc2ccc(-c3ccccc3)o2)c1 (stereo unspecified) | 3604
O=C(OCc1cn([C@@H]2C[C@H](c3ccccc3)N(C(=O)c3cccs3)C[C@H]2O)nn1)c1ccccc1 | 3725
CCOC(=O)[C@]12CCC=C1N(Cc1ccc3c(c1)OCO3)C(=O)[C@H](CC(=O)N1CCCCC1)C2 | 6784
O=C(O)CCCNCc1ccccc1F | 11814
C/C=C/c1cccc(-c2nc(C(=O)NC3CCC3)cc3c2[C@@H](CCO)N(S(=O)C(C)(C)C)C3)c1 (stereo partly specified) | 6909
CC(=O)C1=CCC(c2ccc(C)cc2)N(S(=O)(=O)c2ccc(Cl)cc2)C1 (stereo unspecified) | 4502

Next part.
SMILES	Autofluor counter
O=C(Nc1ccc2c(c1)OCCO2)C(c1cc2ccccc2o1)N1CCN(c2ccc(C(F)(F)F)cn2)CC1 (stereo unspecified)	5433
CC(=O)ON=C1C=CC(=C(C#N)c2ccccc2)C=C1	6738
CSc1c2c([nH]c(=O)c1C#N)-c1ccccc1CC2	5819
CC1Oc2ccc(C#N)cc2N(Cc2cccc(F)c2)C1=O (stereo unspecified)	3598
Fc1ccc(-c2nc3ccc(Cl)cn3c2Cc2cccc(Cl)c2)cc1	7731
CCc1nc2c(OCCc3cccc(OC)c3)cccn2c1N(C)C(=O)c1cccs1	2876
O=C(O)c1c[nH]n2c(=S)ncnc12	3649
C=Cc1ccc(Cn2c(C)c(C(=O)NCc3cccc(C(F)(F)F)c3)sc2=O)cc1	5247
COc1ccc([C@H]2C[C@@H](O)[C@H](n3cc(C4CC4)nn3)CN2C(=O)c2cccs2)cc1	3867
CC1=C(O)C(=O)C(c2c(C)cc(C)c(Br)c2C)=C(O)C1=O	4705
O=C1NC[C@H](CC2CCCCC2)N(CCC23CC4CC(CC(C4)C2)C3)C1=O	4843
Cc1cc(S(=O)(=O)NC[C@H]2O[C@@H](n3ccc(N)nc3=O)[C@H](O)[C@@H]2O)c(C)s1	3782
COc1ccc([N+](=O)[O-])cc1NC(=O)COC(=O)C12CC3CC(CC(O)(C3)C1)C2	3020
CC(C)C1C(=O)N(Cc2cn(CCC3OCCO3)nn2)CCS(=O)(=O)N1Cc1ccc(-c2ccccc2Cl)cc1 (stereo unspecified)	5615
Cc1c(C(=O)NCc2ccc(C#N)cc2)sc(=O)n1Cc1ccccn1	4506
C[C@H]1CN([C@@H](C)CO)S(=O)(=O)c2ccc(Br)cc2O[C@H]1CN(C)S(=O)(=O)c1ccccc1F	5311
CCCNC(=O)C1(C)CCN(C(=O)c2cccc(C(F)(F)F)c2)C1 (stereo unspecified)	3656
CCOC(=O)c1cc(C)nnc1C(=O)OCC	3814
Cc1cc(C(=O)N2CCC2(C)C(=O)NCCC#N)nn1C (stereo unspecified)	3772
CCC(C(N)=O)N1C(=O)C2C3CCC(C3)C2C1=O (stereo unspecified)	3515
Cc1nc2ccc(S(=O)(=O)CCC(=O)NCc3ccc(Cl)cc3)cc2s1	5189
CCOC(=O)[C@]12CCCC=C1N(Cc1ccc(Cl)cc1Cl)C(=O)[C@H](CC(=O)NCC13CC4CC(CC(C4)C1)C3)C2	4219
Cn1c(=O)c2c(-c3ccccc3)n(-c3cc([N+](=O)[O-])ccc3N)cc2n(C)c1=O	6468
O=C1NC[C@@H](CCCCN2C[C@H](Cc3ccc(O)cc3)N(Cc3ccccc3)C(=O)C2=O)N(Cc2ccccc2)C1=O	5119
COc1cc(C(O)c2nc(-c3ccccc3OC)cs2)ccc1F (stereo unspecified)	2881
CCc1nc2ccc(C(=O)NCc3ccccc3OC)cn2c1N(C)Cc1ccc(OC)cc1	3836
CCCCN(C=O)c1c(CC)nc2c(OCc3ccc(S(C)(=O)=O)cc3)cccn12	3668
O=C1NC[C@H](CCCCN2C[C@H](Cc3ccc(O)cc3)N(CCc3ccc(O)cc3)C(=O)C2=O)N(Cc2ccccc2)C1=O	4171
COc1ccc(N2CCN(CC(=O)Nc3c(C)cccc3C)CC2)cc1	4044
CCOc1ccc(S(=O)(=O)Nc2cccc(C(=O)N3CCN(c4ccccn4)CC3)c2)cc1	3898
COCCNC(=O)C1(C)CCCN(Cc2cn(C)c3ccccc23)C1 (stereo unspecified)	3656
CC(C)COC(=O)N(C)C[C@H]1OCc2cn(nn2)CCCC(=O)N([C@@H](C)CO)C[C@@H]1C	4417
Nc1ccccc1C(=O)NN=Cc1cccnc1	5791
COc1ccc(NC(=O)c2cc(-c3cc(F)ccc3OC)n[nH]2)c(OC)c1	2942
Cn1ccn(CCCCCCn2ccn(C)c2=S)c1=S	3691
O=C(NCCN1CCC(n2c(=O)[nH]c3ccccc32)CC1)c1cccc(F)c1	5841
CC(=O)Nc1cccc(-c2ccnc3c2CC(C(=O)Nc2cccc(Oc4ccccc4)c2)O3)c1 (stereo unspecified)	3719
Cc1onc(-c2ccccc2Cl)c1C(=O)O/N=C(\N)c1cccc([N+](=O)[O-])c1	3790
CSc1ccc(-c2cccc3nncn23)cc1	2778
COc1ccccc1CCC(=O)Nc1ccc2c(c1)c(=O)n(C)n2C	3548
Cc1ccc(-n2c(=S)[nH]c3ccccc3c2=O)cc1F	3626
CCOC(=O)c1ccc(NC(=O)c2nc[nH]c2C(=O)NC[C@H](C)O)cc1	3713
COc1cccc(-c2ncn(CCc3ccccc3OC)c2C(C)C)c1	5845
CCC[C@H]1CN(c2ccccc2)C(=O)[C@@H]1CC(=O)Nc1ccccc1	3322
COc1ccc(NC(=O)C2(C)Cc3c(-c4ccc(C(N)=O)cc4)ccnc3O2)cn1 (stereo unspecified)	4084
COc1ccc(S(=O)(=O)N2CCCCC2)cc1NC(=O)C1CC1(Cl)Cl (stereo unspecified)	3855
CC(C)c1nc(CNC(=O)CC2C(=O)NCCN2Cc2ccccc2)cs1 (stereo unspecified)	4516
CCCNC(=O)c1cc(C2CCCCN2C(=O)c2ccc3ccccc3c2)on1 (stereo unspecified)	3612
CC(C)C[C@@H](CN1CCC[C@@H]1CN1C(=S)NC[C@@H]1Cc1ccc(O)cc1)N1C[C@H](Cc2ccc(O)cc2)N(CC2CCCCCC2)C1=S	4614
O=C(NCc1cccs1)c1ccc2sc(COCCO)nc2c1	3848
C[C@@H]1CN([C@H](C)CO)S(=O)(=O)c2ccc(C#Cc3ccccc3)cc2O[C@H]1CN(C)C(=O)Nc1ccc2c(c1)OCO2	2957
Cc1ccc(NC(=O)CN(C)C(=O)COc2ccc(Br)cc2)cc1	3914
COc1cc(CN2C(=O)C(C)ON=C2c2ncccc2C)cc(OC)c1 (stereo unspecified)	4145
CN1CCN(C(=O)c2ccc(S(=O)(=O)N(C)c3ccccc3)cc2)CC1	3444
Cc1cccc(C)c1NC(=O)C1c2ccccc2OCC(=O)N1Cc1ccc2c(c1)OCO2 (stereo unspecified)	4125
CCCc1ccc(S(=O)(=O)N2CCN(C(=O)c3cc(C)on3)CC2)cc1	3765
Cc1cc(S(=O)(=O)Nc2ncnc3sccc23)ccc1F	3736
CS(=O)(=O)Nc1cccc(-c2cc(NC=O)c3ncc(-c4ccc(F)c(Cl)c4)n3c2)c1	3120
COC(=O)[C@H]1C[C@H](OC(=O)NC2CCCC2)[C@@]2(O)CN(S(=O)(=O)c3ccc(C)cc3)CC2[C@H]1C(=O)OC (stereo partly specified)	3757
OCC[C@@H]1C[C@H](O)[C@@H](O)[C@]2(OCc3ccc(CO)cc32)O1	5728
Later entries
SMILES	Autofluor counter
CN1CCC(N2CCN(C3CN(Cc4cn(Cc5ccc(C(F)(F)F)cc5)nn4)S(=O)(=O)C3)CC2)CC1 (stereo unspecified)	5952
CN(C)CCN(C(=O)c1ccc2ccccc2c1)c1nc2cc3c(cc2s1)OCO3	2864
CCCCOC(=O)c1ccc(NC(=O)COC(=O)C2CC2C)cc1 (stereo unspecified)	3836
O=C1C(=O)c2cccnc2-c2ncccc21	5831
COc1ccccc1C(=O)NCC(=O)OCc1nnc(-c2ccccc2)o1	2795
CCOC(=O)c1c(-c2ccc(OC)cc2)oc2c1C(OC(C)=O)CCC2 (stereo unspecified)	5558
Cc1ccc(C(=O)Nc2nc(-c3ccc4c(c3)OCCO4)cs2)o1	3236
Nc1ccc2c(Cl)cc(Cl)cc2c1	3937
Cc1cc(F)ccc1C(O)c1ncc(-c2ccc3ccccc3c2)[nH]1 (stereo unspecified)	2941
CCc1nc2c(OCc3ccc(F)cc3)cccn2c1N(C)C(=O)COc1ccccc1	2988
CC(=O)Nc1ccc(NC(=O)C2Cc3c(-c4ccc5c(c4)OCO5)ccnc3O2)cc1 (stereo unspecified)	3611
Cc1onc(-c2ccccc2)c1C(=O)OCC(=O)N1CCCCC1	3123
CCc1nc2ccc(C(=O)NCCCn3ccnc3)cn2c1N(C)Cc1ccc(OC)cc1	3660
CN(C)CCNC(=O)C1Cc2c(-c3ccccc3Oc3ccccc3)ccnc2O1 (stereo unspecified)	3668
O=C(Nc1ccc(F)c(Cl)c1)Nc1nnc([C@H]2C[C@H](O)[C@@H](CO)O2)s1	3385
Cc1cccc(C)c1-n1nnnc1C(c1ccccc1)N1CCC2(CC1)C(=O)NCN2c1ccccc1 (stereo unspecified)	4129
CN(C(=O)COC(=O)c1c[nH]c2ccccc12)c1ccccc1	3802
CN1OC[C@@H]2CN(Cc3ccc(Cl)cc3)[C@H](c3ccc(-n4ccnc4)cc3)C[C@@H]21	4902
Cc1cc2nc(NC(=O)C3(C)CCN3C(=O)C(C)C)[nH]c2cc1C (stereo unspecified)	3891
CCCCNC(=O)C1(C)CCN1C(=O)c1ccc(C)c(F)c1 (stereo unspecified)	3761
COc1ccc(Br)c(C(=O)OCC(=O)Nc2cc(C)on2)c1	3746
O=C(Nc1cccc(C(F)(F)F)c1)c1ccc2sc([C@@H]3O[C@H](CO)[C@H](O)[C@H](O)[C@H]3O)nc2c1	3664
CC(=NNC(=S)N1CC2CCC(CC2)C1)c1ccccn1	2877
COC(=O)c1ccc2nc(-c3ccccc3)c(Cc3cccc(F)c3)n2c1	6358
COc1cccc(OC)c1OCCN1CCC(C(=O)NC(c2ccc3c(c2)OCO3)c2ccccn2)CC1 (stereo unspecified)	4539
CCCc1nc2c(C)cc(Br)cn2c1Cc1ccc(C)cc1	6746
Cn1cnc2ncnn2c1=S	2807
COC(=O)C1(C(=O)OC)C/C=C\CN(S(=O)(=O)c2ccccc2[N+](=O)[O-])CCC1	5420
COc1ccccc1-c1ccc([C@@H]2C[C@H]3[C@H](CON3C)CN2C(=O)c2ccc(-c3ccccc3)cc2)cc1	2958
O=C1c2ccccc2C(c2nnnn2Cc2ccccc2)N1Cc1ccco1 (stereo unspecified)	4363
C[C@H]1CN([C@@H](C)CO)C(=O)CCCn2cc(nn2)CO[C@@H]1CN(C)C(=O)Nc1ccc(C(C)(C)C)cc1	3781
